Source: PubChem
NPYLR7 agonist: activates Aedes aegypti NPYLR7 receptor; AID 1259423; HEK293T NPYLR7/Galpha15, GCaMP6s calcium fluorescence; activation, % at 10 µM; 0.15% of 270,000 active; in the data active = activation above about 40%;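 note: 0% = vehicle and 100% = reference agonist at the receptor; some compounds past the cut are filed as inactive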
NPYLR7 agonist max-min: further read-out of NPYLR7 agonist, marked with its call; activation, %; measured here: Max-Min RFU normalised activation; some inactives read as strong as hits;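 span of the calcium signal over five minutes; 0% = vehicle and 100% = native peptide agonist; compound fluorescence can raise it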
* hit, by the source's call; & = joins results of further samples. Not all compounds are listed, so the mix of outcomes need not match the whole.

SMILES	NPYLR7 agonist	NPYLR7 agonist max-min
CN(C)c1cccc(C(=O)N2CCN(C(c3ccccc3)c3ccc(F)cc3)CC2)c1 (stereo unspecified)	1.1	-1.3
O=C(NCCn1ncc2c(=O)n(Cc3ccc(Cl)cc3)cnc21)c1ccc2c(c1)OCO2	-2.7	-6.9
O=C(c1cc2ccccc2oc1=O)N1CCN(Cc2nc(-c3cccs3)cs2)CC1	-6.6	-12.2
COc1ccccc1CNC(=O)C1CCCN(c2cccc3c2C(=O)N(c2ccc4c(c2)COC4)C3=O)C1 (stereo unspecified)	2.0	1.2
O=c1[nH]nc(-c2ccncc2)n1CC1CCCCC1	-1.4	5.7
O=S(=O)(CCNc1nccc(CCC(F)(F)F)n1)N1CCCC1	7.8	5.4
C=CCOCC(O)CN(Cc1c(-c2ccccc2)nn(C)c1Oc1cccc(OC)c1)CC(C)C (stereo unspecified)	2.8	8.9
CC1CCCCN1C(=O)COC(=O)c1c(NC(=O)c2ccco2)sc2c1CCC2 (stereo unspecified)	4.1	0.9
Cc1cc(C(=O)Cn2ncc(Cl)c(Cl)c2=O)c(C)n1C	3.0	3.5
Cc1cc(C(=O)N(Cc2ccsc2)CC2CCCO2)cc(=O)[nH]1 (stereo unspecified)	2.1	1.3
CSC(=N)N1CCOCC1	-1.6	-2.9
Cc1noc(C2CCCCN2C(=O)c2cnn(Cc3ccccc3)c2)n1 (stereo unspecified)	0.2	-0.8
CCOC(=O)C1=C(C)NC(C)=C(C(=O)OCC)C1c1ccc(Br)cc1	4.7	1.9
O=C(CN(C1CC1)S(=O)(=O)c1ccc(Br)cc1)N(CCc1c[nH]c2ccccc12)Cc1ccc(Cl)c(Cl)c1	18.5	14.7
O=C(Nc1ccc(-c2ccn[nH]2)cc1)C1CCCN(C2CCSCC2)C1 (stereo unspecified)	-1.0	-1.8
COCCN(Cc1ccc(OS(=O)(=O)c2ccc(F)cc2)cc1)C(=O)c1cccc(F)c1	6.8	18.1
O=C1CN(Cc2ccco2)C2CS(=O)(=O)CC2N1c1ccc(Cl)cc1 (stereo unspecified)	7.8	5.1
CCNC(=O)N(Cc1cccc(OS(=O)(=O)c2ccc(F)cc2)c1)C1CC1	14.1	13.0
Cc1cc(C)c(NC(=O)CSc2nc(=O)n(Cc3cccnc3)c3c2CCC3)c(C)c1	2.1	1.0
CCN(CC)c1onc(-c2ccccc2)c1CN(Cc1ccccc1)C(=O)c1ccc(OC)cc1	0.6	3.9

Full records as entered above:
Entry for O=C1CN(Cc2ccco2)C2CS(=O)(=O)CC2N1c1ccc(Cl)cc1 (stereo unspecified) → NPYLR7 agonist = 7.8; NPYLR7 agonist max-min = 5.1
Entry for O=C(Nc1ccc(-c2ccn[nH]2)cc1)C1CCCN(C2CCSCC2)C1 (stereo unspecified) → NPYLR7 agonist = -1.0; NPYLR7 agonist max-min = -1.8

(further entries)
SMILES	NPYLR7 agonist	NPYLR7 agonist max-min
N#Cc1ccc(C(=O)N2CC(=O)N3CCc4c(F)cccc4C3C2)cc1 (stereo unspecified)	-0.8	12.2
Cn1c(=O)[nH]c(=O)c2c1nc(NCc1ccccc1Cl)n2CCCc1ccccc1	0.4	11.2
CCCn1c(=O)c2ccc(C(=O)NC(C)C)cc2n2c(=O)n(CC(=O)Nc3ccc(C)cc3C)nc12	1.0	-2.9
COc1cccc(C2(C(=O)Nc3cnn(-c4ccccc4)c3)CCCC2)c1	-2.7	334.2
CCOC(=O)C1(Cc2cccc(F)c2)CCN(CCCn2cccn2)CC1	11.4	13.2
CC(C)(C)c1cc(NC(=O)c2cccc(Cl)c2)n(-c2ccc(C#N)cc2)n1	22.3	14.9
O=C(c1cccc(Br)c1)N1CCCC(OCc2ccccc2)C1 (stereo unspecified)	-4.8	0.4
S=c1nc(Nc2ccccc2Cl)c2ccccc2[nH]1	12.7	12.4
COC(=O)c1ccc(N=Nc2c(-c3ccc([N+](=O)[O-])cc3)[nH]n(-c3ccccc3)c2=O)cc1	-2.2	-9.2
CCOC(=O)c1sc(N)c(C(=O)OCC)c1CSc1nnc(NC(C)C)s1	-1.4	2.3
COc1ccc(CNC(=O)Nc2ccc3c(c2)N(S(=O)(=O)c2ccccc2)CCC3)cc1OC	33.3	36.4
Cc1ccc2oc(C(=O)N3CCCC(c4nc5ccccc5o4)C3)c(C)c2c1 (stereo unspecified)	-3.7	-4.6
CCOC(=O)c1c(C)c(C(=O)CN(C(=O)COCc2ccccc2)C(C)C)c(C)n1C	8.5	9.9
O=C(c1cn(Cc2ccccc2Cl)nn1)N1CCCC(c2ccccc2)CC1 (stereo unspecified)	22.7	9.5
Cc1ccccc1-c1onc(C)c1C(=O)NCCC1(C)OCCO1	6.2	0.0
O=C1CN(C(C(=O)NC2CC2)c2ccc(F)cc2)CCN1 (stereo unspecified)	-1.1	0.1
CCOC(=O)c1cc(C(C)C)sc1NC(=O)CCCCC(=O)OC	11.5	8.7
CCc1cc2c(=O)n(C)c(=S)[nH]c2s1	-9.2	-9.0
O=C(NS(=O)(=O)c1cccc(C(F)(F)F)c1)c1cnsn1	7.0	4.4
CC(C)(C)n1cc(CNCC2(N3CCSCC3)CCCC2)cn1	4.5	2.1
CC1Cc2ccccc2N1S(=O)(=O)CC12CCC(CC1=O)C2(C)C (stereo unspecified)	-1.0	-1.9
CC(CN(C(=O)C1CCCO1)c1ccccc1)NC(=O)C1CCCO1 (stereo unspecified)	-0.3	4.1
CCc1csc(CNC(=O)C2CCC(=O)N(Cc3cccc(OC)c3)C2)n1 (stereo unspecified)	15.6	6.5
COc1ccccc1CNC(=O)c1ccc(CC2CCCNC2)cc1 (stereo unspecified)	4.8	0.4
CCOC(=O)N1CCC(NC(CC(C)C)c2cccnc2)CC1 (stereo unspecified)	3.7	1.9
CC(=O)C(C)n1c(CN2CCN(c3ccc(F)cc3)CC2)nc2c1c(=O)n(C)c(=O)n2C (stereo unspecified)	8.9	5.5
COc1ccc(C(=O)N=c2sccn2Cc2cccc(C(=O)NC3CC3)c2)cc1OC	3.1	2.3
CCCOC(=O)C1=C(C)NC2=C(C(=O)CCC2)C1c1cc(OC)c(OC)c(OC)c1 (stereo unspecified)	4.7	2.5
Cc1cc(NC(=O)c2ccc3c(c2)OCO3)n(-c2ncnc3c2cnn3-c2cccc(C)c2C)n1	9.4	5.6
COc1ccc(NC(=O)CCN(CCc2ccccc2)c2nc(-c3ccco3)nc3ccccc23)cc1	0.3	11.0
C=CCOCC(O)CN(Cc1ccc(F)cc1)Cc1cccc(OC)c1OC (stereo unspecified)	20.4	16.7
CN(CCCOc1cccc(Cl)c1)Cn1ncc2ccccc2c1=O	8.2	5.3
Cn1nc(-c2nccn2CCN2CCOCC2)c2c(Cl)cccc21	-3.6	-5.4
Cc1ccoc1C(=O)NCC1CCN(Cc2nc(C(C)C)cs2)C1 (stereo unspecified)	0.7	1.4
CCCc1c(C)nn(-c2ccc(C(=O)NC[C@@H]3CCCO3)cc2)c1C	5.5	6.9
O=c1cc(SCc2ccccc2)c2ccccc2o1	7.1	16.2
CN1C(=O)CN2CC1c1ccccc1S2(=O)=O (stereo unspecified)	14.0	23.8
COc1ccc(N=Cc2c(O)n(-c3ccccc3)c(=O)c3ccccc23)cc1OC	-5.8	-12.4
COC(=O)C1=C2c3ccc(OC)cc3CCC2(C)C(=O)C1 (stereo unspecified)	-10.2	-12.8
CCOc1cc(C=C2C(=O)NC(=S)NC2=O)ccc1OCCSc1cccc2ccccc12	-6.4	-7.7

Structural class: the entries above containing a Cl atom
SMILES	NPYLR7 agonist	NPYLR7 agonist max-min
O=C(NCCn1ncc2c(=O)n(Cc3ccc(Cl)cc3)cnc21)c1ccc2c(c1)OCO2	-2.7	-6.9
Cc1cc(C(=O)Cn2ncc(Cl)c(Cl)c2=O)c(C)n1C	3.0	3.5
O=C(CN(C1CC1)S(=O)(=O)c1ccc(Br)cc1)N(CCc1c[nH]c2ccccc12)Cc1ccc(Cl)c(Cl)c1	18.5	14.7
O=C1CN(Cc2ccco2)C2CS(=O)(=O)CC2N1c1ccc(Cl)cc1 (stereo unspecified)	7.8	5.1
Cn1c(=O)[nH]c(=O)c2c1nc(NCc1ccccc1Cl)n2CCCc1ccccc1	0.4	11.2
CC(C)(C)c1cc(NC(=O)c2cccc(Cl)c2)n(-c2ccc(C#N)cc2)n1	22.3	14.9
S=c1nc(Nc2ccccc2Cl)c2ccccc2[nH]1	12.7	12.4
O=C(c1cn(Cc2ccccc2Cl)nn1)N1CCCC(c2ccccc2)CC1 (stereo unspecified)	22.7	9.5
CN(CCCOc1cccc(Cl)c1)Cn1ncc2ccccc2c1=O	8.2	5.3
Cn1nc(-c2nccn2CCN2CCOCC2)c2c(Cl)cccc21	-3.6	-5.4

(next part)
SMILES	NPYLR7 agonist	NPYLR7 agonist max-min
Cc1cc(C)cc(NC(=O)CC(=O)N[C@H]2CCCC[C@@H]2O)c1	-1.7	-2.9
CN1C(=O)C(S(=O)(=O)c2ccc(Cl)cc2)=C(N)C12CCC2	2.0	14.3
Cc1ccc(N2CCC(Cc3nn(C)c(=O)n3-c3ccccc3)CC2)nn1	3.0	-1.3
Cc1cccn2c(=O)c3cc(C#N)c(=NC(=O)c4ccco4)n(Cc4ccco4)c3nc12	17.0	13.1
COc1ccc(CN(CCN2CCOCC2)CC(O)C(C)C)cc1 (stereo unspecified)	21.6	17.5
CCCCc1ccc(C(=O)N(CCCOC)CC(=O)N(CCc2c[nH]c3ccccc23)Cc2ccc(C(F)(F)F)cc2)cc1	-9.4	-3.0
CC1(C)CC(=O)C2=C(C1)OC(=N)C(C#N)C2C1CC=CCC1 (stereo unspecified)	0.1	-2.4
CCOC(=O)C1(CCCc2ccccc2)CCN(C(=O)c2nonc2C)CC1	13.0&-7.7	6.8&-10.6
CCc1cc(=O)[nH]c(-n2nc(C)cc2NC(=O)c2ccccc2)n1	10.1	6.3
CC1(C)O[C@@H]2C[C@@](OCc3ccccc3F)(C(=O)NN3CCOCC3)CC(OCc3cccc(C(F)(F)F)c3)[C@@H]2O1 (stereo partly specified)	19.8	5.7
CC(C)c1nccn1CCCNC(=O)c1ccc(N2CCSCC2)nc1	6.4	1.8
CCSc1nnc(NC(=O)c2ccc(Br)o2)s1	0.7	2.5
CCCOc1nn(CCC)cc1C(=O)N1CCC(C(=O)OCC)CC1	1.1	-7.0
CN(C)CC1(O)CCCN(C(=O)c2scc3c2OCCO3)CC1 (stereo unspecified)	-11.3	-11.8
CCOC(=O)C1CCN(C(c2cc(OC)c(OC)c(OC)c2)C2Sc3nc(C)nn3C2=O)CC1 (stereo unspecified)	-7.2	-5.0
CC(=O)N1CCC(C(=O)OC(C)c2c(F)cccc2N(C)C)CC1 (stereo unspecified)	5.1	4.9
Cc1nc(-c2ccccn2)[nH]c(=O)c1CC(=O)N1CCc2ccccc2C1	-2.9	-2.1
CC1=C(C(=O)Nc2ccc(Cl)cc2)C(c2ccc(N(C)C)cc2)NC(=O)N1 (stereo unspecified)	3.3	3.1
Cc1cccn2c(NC(C)(C)CC(C)(C)C)c(-c3ccccn3)nc12	-3.5&16.7	3.7&21.0
CCn1cc(NC(=O)N(C)CCO)c2ccccc21	1.6	-5.8
O=C(Nc1ccccc1F)C1CCCN(S(=O)(=O)c2ccc(F)cc2)C1 (stereo unspecified)	-10.4	-11.4
COc1ccccc1-c1nc2cc(C)ccn2c1NC(=O)C(c1ccccc1)c1ccccc1	-1.4	2.3
CC1(C(=O)NS(=O)(=O)c2ccc(Cl)s2)CCN1C(=O)c1cccc2ccccc12 (stereo unspecified)	3.1	0.8
C=CCO[C@@H]1C[C@H]2C(=O)N3CCN(C(=O)NC4CCCCC4)C[C@H]3C(=O)N2C1	-10.8	-15.5
COC(=O)[C@@H]1CCCN1C(=O)Cc1ccc(N2CCC(NCc3ccc(Cl)s3)CC2)cc1	3.6	1.2
Cc1cc(=O)[nH]c(-n2nc(C3CC3)cc2NC(=O)c2ccc(S(=O)(=O)N(C)C)cc2)n1	1.9	3.3
CCCCCCCCCCCC(=O)N(CC(=O)N1c2ccccc2-n2cccc2C1c1ccc(F)cc1)C(C)C (stereo unspecified)	20.2	19.6
CN1CCCC(CCNC(=O)CCN2CCCCO2)C1 (stereo unspecified)	-12.7	-12.2
CS(=O)(=O)c1ccc(CC(=O)N2CCC3(CCCO3)CC2)cc1	5.5	4.4
CSc1ccc(-c2nc(CN3CCC4(CC3)N=C(C)NC4=O)c(C)o2)cc1	0.8	-1.4
CC(C)(C)c1ccc(CC(=O)N2CCC2(C)C(=O)NS(=O)(=O)c2cccc(Cl)c2)cc1 (stereo unspecified)	2.3	2.1
Cc1ccc(NC(=S)NN(C)c2nc(C)cnc2C)cc1	2.1	-0.3
CCN1CCN(C(=O)c2ccccc2N2CCC(NC(=O)c3cc(F)cc(F)c3)CC2)CC1	-0.4	8.9
CC(=O)N1CCCC(N2CCN(c3ccccc3F)CC2)C1 (stereo unspecified)	0.1	7.0
NNC(=O)c1nccnc1N	-4.0	-4.6
Cc1ccc(N2CCC(CCCc3ccccc3)(C(=O)O)CC2)nn1	6.4	-0.9
O=c1cc(CSc2nncn3c2cc2sccc23)nc2ccccn12	2.8	-0.4
O=C(Nc1ccc(Cl)cc1O)C1CCC(N2C(=O)C3C4CCC(C4)C3C2=O)CC1 (stereo unspecified)	1.7	0.1
Cc1ccc(NC(=O)c2nnc(COC(=O)CC3CC4CCC3C4)s2)cc1 (stereo unspecified)	0.9	15.3
Cc1noc(CN2CCOc3c(O)cc(-c4ccccc4C)cc3C2)n1	1.1	2.7
COc1ccc(C(=O)NC2CC2)cc1OC1CCN(Cc2cccc3cccnc23)CC1	-1.4	-4.6
CCCCOc1ccc(-c2nc(C=Nc3cnc4cc(OC)ccc4c3)c(O)o2)cc1	1.5	-4.4
O=C(CNc1ccccc1-c1ccccc1)N1CCNC1=O	-2.5	-3.6
